Hsc70 ATP site – small molecules displacing fluorescent ligand from Hsc70 – biochemical, fluorescence polarization, primary screen (AID 568). Hsc70 fluorescence polarization, probe displacement; higher % means a stronger effect; strong numbers were not always called active. displacement, % at 20 µM, or IC50 in µM where a hit was titrated. 83,000 tested, under 10 active;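 active means displacement above 50% without optical interference and an IC50 on retest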;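 further: ATPase domain with a fluorescein-tagged ATP probe; 0% = vehicle and 100% = excess ADP; read after one hour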
MT1-MMP reporter – inhibitors of MT1-MMP promoter transcription, cell-based, luciferase reporter, luminescence (AID 618). calls from a first round at 10 µM; hits with a dose series show EC50 in µM. MT1-MMP promoter luciferase reporter cells, luminescence. actives 0.62% (n = 87,000);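 active means over half of the reporter light lost at 10 µM or EC50 under 50 µM; inactive means the rest and hits that failed the dose series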;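 further: actives suppress MT1-MMP promoter-driven transcription so potencies describe inhibitors; HT1080 fibrosarcoma cells; overnight exposure; toxic or luciferase-blocking compounds were not removed from the actives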
WNV protease inh – inhibitors of West Nile virus NS2B-NS3 protease; P06935; AID 577; WNV NS2B-NS3 protease, fluorogenic substrate Ex360/Em465; hits give low values; actives 0.18% (n = 65,000); z-score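 (tested at a level between 10 and 100 µM)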;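 active means z-score at -3 or under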;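 further: score is relative to mean and spread of the compound wells of a plate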
Target sequence (P06935 1371-1501 limits assumed): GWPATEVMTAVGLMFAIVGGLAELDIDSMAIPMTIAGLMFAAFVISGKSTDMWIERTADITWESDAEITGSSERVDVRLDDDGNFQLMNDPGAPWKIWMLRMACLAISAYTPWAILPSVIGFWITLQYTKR
Target sequence (P06935 1502-1679 limits assumed): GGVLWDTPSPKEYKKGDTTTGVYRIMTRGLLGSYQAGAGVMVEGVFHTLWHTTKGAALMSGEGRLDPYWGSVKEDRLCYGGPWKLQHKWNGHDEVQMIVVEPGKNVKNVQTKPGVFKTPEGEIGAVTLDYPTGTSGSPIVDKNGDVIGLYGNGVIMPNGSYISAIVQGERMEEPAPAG
* = called active by the depositor; i = inactive; x = not tested or not shown.

Structure | Hsc70 ATP site | MT1-MMP reporter | WNV protease inh
O=c1c2cn[nH]c2[nH]c(=S)n1-c1ccccc1F | 0.1% | i | -0.51
O=C(NCC1CCCO1)c1cccs1 (stereo unspecified) | 2.4% | i | -0.44
CC(C)NC(=O)CCNC(=O)c1ccc(F)cc1 | 2.2% | i | 0.41
COc1ccc(Nc2nc(N)nc(CN3CCN(c4ccccn4)CC3)n2)cc1 | 1.4% | i | 0.48
CC(=O)C1=C(O)C(=O)N(Cc2cccnc2)C1c1ccccc1 (stereo unspecified) | 6.2% | i | -0.85
Nc1nc2ccc(N3CCOCC3)cc2s1 | -9.9% | i | -0.83
CSc1nnc2n(-c3ccc(C)cc3)c(=O)c3c4c(sc3n12)COC(C(C)C)C4 (stereo unspecified) | -1.0% | i | 0.23
COc1ccc(NC(=O)CC2SC(=NCc3ccccc3OC)NC2=O)cc1 (stereo unspecified) | 4.6% | i | -0.36
Cc1cc(NC(=O)CN2C(=O)NC(Cc3ccccc3)C2=O)no1 (stereo unspecified) | -0.7% | i | x
CCC(=O)c1cc(F)c(N2CCN(S(=O)(=O)c3ccc(C)cc3)CC2)cc1C | -2.6% | i | 0.04
CCn1c(=O)cc(OCC(=O)N(C)C2CCCCC2)c2ccccc21 | -1.3% | i | 1.8
O=C(CC12CC3CC(C1)CC(CC(=O)N1CCCC1)(C3)C2)N1CCCC1 | 1.8% | i | -0.56
CC(=O)c1c(N2CCCCC2)nc(=S)n(-c2ccccc2)c1C | 2.2% | i | -0.32
CCc1ccc(NC(=O)CSc2nnc(Cc3cccn3C)n2-c2ccc(F)cc2)cc1 | -0.6% | i | -1.4
C=CCn1c(SCCC)nc(O)cc1=O | -0.2% | i | x
CCOC(=O)N1CCN(C(=O)Cn2c(C)cc3ccccc3c2=O)CC1 | -1.0% | i | -0.32
COc1ccc(OC)c(S(=O)(=O)n2cnc3cc(C)c(C)cc32)c1 | -4.6% | i | -0.72
CCCSc1nnc(CN2CCOCC2)n1C | 5.4% | i | 0.54
Cc1cc(-c2csc(NC(=O)c3cc4ccccc4o3)n2)c(C)n1C | -8.4% | i | 0.77
O=C(c1ccccc1-c1nc(-c2ccc(Cl)cc2)no1)N1CCCC1 | 0.0% | i | -0.68
Nc1ccc(Nc2ccccc2N)cc1 | -13% | i | -1.8
O=C(Nc1nc(-c2nc3ccccc3s2)cs1)C1COc2ccccc2O1 (stereo unspecified) | 0.9% | i | 0.89
O=P(CCN1CCCCC1)(c1ccccc1)c1ccccc1 | -0.2% | i | x
COc1ccc(OC)c(NC(=O)Cn2c(-c3ccc(Cl)cc3)noc2=O)c1 | 3.4% | i | 0.7
Oc1ccccc1OCc1nc2ccccc2s1 | -5.4% | i | 2.1
CCn1c(Cc2ccccc2)nnc1SCC(=O)N1CCCCC1 | -1.4% | i | x
COc1ccc(CNC(=O)CSc2nnnn2-c2ccc(O)cc2)cc1 | 4.9% | i | -0.39
CC1=CC(=C2N=C(c3ccccc3)OC2=O)C=C(C)O1 | -155% | i | -0.5
O=C(O)CCCC(=O)Nc1ccccc1-n1ccnc1 | -2.8% | i | 0.65
Cc1cc(OCc2nn[nH]n2)c2c(C)c(CC(=O)O)c(=O)oc2c1 | -6.5% | i | -0.02
Cc1cc(=O)n(CCc2ccccc2)c(O)c1C#N | 0.3% | i | 1.3
Cc1cc2n(c(=O)c1C#N)CCCN2c1cccc(Cl)c1 | -2.5% | i | x
COc1ccc(CNC(=O)Cn2cc3c(n2)CCCCC3)cc1 | -2.2% | i | -0.68
COc1ccc2cc(CN(CC3COCCO3)S(=O)(=O)c3ccccc3)c(=O)[nH]c2c1 (stereo unspecified) | 0.4% | i | -0.01
CN(C(=O)C12CC3CC(CC(C3)C1)C2)C1CCS(=O)(=O)C1 (stereo unspecified) | -0.6% | i | -0.28
O=S(=O)(CCCc1ccccc1)c1ncn[nH]1 | -9.6% | i | -0.05
CC1(C)Cc2ccccc2-c2nnc(SCc3ccc(C#N)cc3)n21 | 1.7% | i | 0.57
O=C(Nc1cccc(C(F)(F)F)c1)C1CCCN(c2ncccn2)C1 (stereo unspecified) | 1.3% | i | 0.77
CC(C)(C)n1ncc2c(=O)n(CC(=O)Nc3ccc4c(c3)OCCO4)cnc21 | -5.8% | i | 0.03
CCC(C)NC(=O)c1cn(C)c(=O)c2cc(OC)c(OC)cc12 (stereo unspecified) | -3.9% | i | -0.03
Cc1ccc2nsnc2c1N(S(C)(=O)=O)S(C)(=O)=O | -1.3% | i | 1.3
Cc1cc2ccccc2c(=O)n1CC(=O)Nc1ccc2c(c1)OCCO2 | -1.2% | i | 1
CCOCCCNC(=O)c1ccc(NC(C)=O)cc1 | -4.5% | i | x
C/C(=N\NS(=O)(=O)c1ccc(Cl)c([N+](=O)[O-])c1)c1ccc(C)o1 | 2.6% | i | x
Cc1nc2ccccc2c2oc(C(=O)NCCCN3CCCC3=O)cc12 | -0.9% | i | 0.13
COc1cc(/C=C2\S/C(=N/S(=O)(=O)c3ccccc3)NC2=O)c([N+](=O)[O-])cc1OC | -0.2% | i | x
CCOC(=O)Cc1csc(NC(=O)c2c(-c3ccccc3)noc2C)n1 | -2.4% | i | -1.5
O=C(O)c1cc(NC(=O)C2CCCO2)cc(NC(=O)C2CCCO2)c1 (stereo unspecified) | 3.1% | i | -0.32
O=C(CNS(=O)(=O)c1ccc(Br)s1)N1CCCC1 | -1.9% | i | -0.3
Cc1ccc2c(c1)sc1ncc(NC(=O)c3ccccc3)c(=O)n12 | 0.6% | i | 1.8

2 entries drawn at random from those above:
Structure | Hsc70 ATP site | MT1-MMP reporter | WNV protease inh
Cc1ccc2nsnc2c1N(S(C)(=O)=O)S(C)(=O)=O | -1.3% | i | 1.3
COc1cc(/C=C2\S/C(=N/S(=O)(=O)c3ccccc3)NC2=O)c([N+](=O)[O-])cc1OC | -0.2% | i | x

More compounds follow:
Structure | Hsc70 ATP site | MT1-MMP reporter | WNV protease inh
Cc1ccc(NC(=O)CCC(=O)OCCCC(F)(F)C(F)(F)F)cc1 | 8.7% | i | 0.63
O=S(=O)(NC1CC2CCC1C2)c1ccc2c(c1)OCCO2 (stereo unspecified) | 2.8% | i | -0.49
CS(=O)(=O)N1CCN(C(=O)Cc2ccccc2)CC1 | -1.3% | i | -0.28
CCCSc1nnc(Cn2c(=O)sc3ccccc32)n1C | 2.9% | i | 0.76
O=C(Nc1nnc(SCc2ccccc2)s1)c1ccco1 | 0.5% | i | x
O=C(NC1CCCCC1)n1c(=O)oc2cc(S(=O)(=O)N3CCCCC3)ccc21 | -2.2% | i | -0.62
O=C(CC(NS(=O)(=O)c1ccc(Cl)cc1)c1ccco1)NC1CCCC1 (stereo unspecified) | -5.8% | i | 1.1
O=C(N/N=C\c1cccc(Br)c1)c1ccccc1-n1cccc1 | 7.3% | i | x
Cc1nnc(Nc2ccccn2)c2ccccc12 | -8.3% | i | -0.82
COc1cccc(OCCSc2nc(N)cc(N)n2)c1 | 7.1% | i | x
Cc1ccnc(N2CCCC(C(=O)Nc3nnc(C)s3)C2)n1 (stereo unspecified) | 1.1% | i | -0.84
Cc1cc(C(=O)CSc2nc3ccccc3n2CCC#N)c(C)n1Cc1cccs1 | -7.3% | i | -1.2
CCOc1cc(C(c2c(C)[nH][nH]c2=O)c2c(C)[nH][nH]c2=O)ccc1OC(=O)c1cccc([N+](=O)[O-])c1 | 28% | i | x
CN(C(=O)COc1cc(=O)n(C)c2ccccc12)c1ccc(Cl)cc1 | 2.9% | i | -0.85
Cc1ccc(-c2nnc(N(C)C(=O)c3ccncc3)s2)cn1 | 6.0% | i | -0.77
COc1ccc(S(=O)(=O)N(CC(N)=O)C2CCCCC2)cc1Cl | 3.4% | i | -2.1
Clc1ccc(-c2nc3n(n2)Cc2ccccc2-3)cc1 | 3.7% | i | x
Cn1c(=O)[nH]c(=O)c2c1nc(CN1CCOCC1)n2Cc1ccc(F)cc1 | 5.4% | i | -1.2
COc1cc2c(cc1OC)CN(C(=O)c1cc(S(=O)(=O)N3CCOCC3)ccc1Cl)CC2 | 4.9% | i | -1
COc1ccc(OC)c(C(=O)c2coc3ccc(OC)cc23)c1 | -4.6% | i | 0.34
CCCN1C2CCCC1CC(NC(=O)NC1CCCCC1)C2 (stereo unspecified) | -4.8% | i | 0.44
O=C(COc1ccccc1)Nc1ccc(-c2nnc(-c3ccco3)o2)cc1 | -5.5% | i | 1.5
CCOC(=O)c1c(C)n(C)c2ccc(O)c(S(=O)(=O)c3ccccc3)c12 | -8.3% | i | -0.38
CCC(=O)N1CCc2cc(S(=O)(=O)NC(CC(C)C)C(=O)N3CCc4ccccc43)ccc21 (stereo unspecified) | 4.0% | i | -1.1
Clc1ccc(-n2c(SC/C=C/c3ccccc3)nnc2-c2cccnc2)cc1 | -0.3% | i | x

One compound at a time (already shown). Screens in order: Hsc70 ATP site, MT1-MMP reporter, WNV protease inh
O=C(Nc1nnc(SCc2ccccc2)s1)c1ccco1 reads 0.5%, i, x
CCCSc1nnc(Cn2c(=O)sc3ccccc32)n1C reads 2.9%, i, 0.76
CS(=O)(=O)N1CCN(C(=O)Cc2ccccc2)CC1 reads -1.3%, i, -0.28

Next section.
Structure | Hsc70 ATP site | MT1-MMP reporter | WNV protease inh
CN(CC(CC(=O)Nc1nncs1)c1ccccc1)S(=O)(=O)c1ccccc1 (stereo unspecified) | -0.4% | i | 1.1
CCOc1ccc(N=CC2=C(O)CC(C)(C)CC2=O)cc1 | -3.1% | i | 2.8
CC(=O)/C(C(=N)N1CCN(C(c2ccccc2)c2ccccc2)CC1)=C(\C)O | 5.2% | i | -0.93
CCOC(=O)c1ccc(NCc2ccc(N(C)C)cc2)cc1 | 1.4% | i | 0.5
CC1CCN(C(=O)CSc2nc3ccccc3[nH]2)CC1 | 4.6% | i | -0.78
COc1ccc(C(=O)Nc2ccc3c(c2)OCO3)cc1OC | 1.3% | i | -1.1
COCCNC(=O)CCCCCNS(=O)(=O)c1ccc(C)cc1 | 0.8% | i | 1.6
COc1ccc(S(=O)(=O)N(CCc2ccccc2)CC(=O)O)cc1 | 2.1% | i | x
CC(N=C(NS(=O)(=O)c1ccc(Cl)cc1)c1ccccc1)C(=O)O (stereo unspecified) | 0.6% | i | x
CC(C)=CC(=O)OCC(=O)Nc1nc(C)c(Cl)cc1Cl | 1.6% | i | -0.08
COCCN1C(=O)C(=O)/C(=C(/O)c2cccc(S(=O)(=O)N(C)C)c2)C12C(=O)N(C)c1ccccc12 (stereo unspecified) | 0.4% | i | -0.28
CC1(C)CC(N2CCC(=O)N(C3CC(C)(C)NC(C)(C)C3)C2)CC(C)(C)N1 | 0.4% | i | -0.57
O=C(CC1Nc2ccccc2NC1=O)c1ccccc1 (stereo unspecified) | -34% | i | -0.07
CC(C)CCNc1ncnc2c1nnn2Cc1ccccc1Cl | -9.1% | i | -0.13
CCOC(=O)c1cc(OC(=O)c2cccc([N+](=O)[O-])c2)n(-c2ccccc2)n1 | 5.4% | i | x
CCCOc1cc(C)c(S(=O)(=O)N2CCN(C)CC2)cc1C | 5.6% | i | 0.19
Cc1cc(=S)[nH]c2c(C)cccc12 | 2.6% | i | x
O=C(NCC1CCCO1)C1C2C=CC3(CN(Cc4cccs4)C(=O)C13)O2 (stereo unspecified) | 2.0% | i | -0.24
CCN1CCN(CCCNC(=O)c2cc3sccc3n2CC)CC1 | 1.2% | i | 0.41
COC(=O)c1c(NC(=O)Cc2cccs2)sc2c1CCCC2 | -10% | i | 1.8
CCCCn1c(CN2C(=O)c3ccccc3C2=O)nc2ccccc2c1=O | 3.9% | i | -0.66
Nn1c(-c2ccco2)n[nH]c1=S | 8.8% | i | 0.81
CC(O)CCC(=O)NCCNC(=O)CCC(C)O (stereo unspecified) | -4.8% | i | 0.25
c1ccc2sc(N3CCOCC3)nc2c1 | 0.5% | i | x
O=C1CCN(Cc2nnnn2CC2CCCO2)c2ccccc2N1 (stereo unspecified) | -5.5% | i | 1.7
COc1c(S(=O)(=O)n2nc(C)cc2C)ccc(Cl)c1Cl | 2.2% | i | 0.36
Cc1cccc(NC(=O)C2CCCN(S(=O)(=O)c3cccc4cccnc34)C2)c1 (stereo unspecified) | 1.5% | i | -0.81
FC(F)(F)c1cc(-c2ccco2)nc(N2CCOCC2)n1 | -3.8% | i | -0.06
CCc1cccc(CC)c1N(COC)C(=O)Cn1c(CO)nc2ccccc21 | 3.2% | i | -0.87
CCOC(=O)c1c(NC(=O)c2ccc(C)cc2)sc2c1CC(C)(C)OC2 | -2.1% | i | x
CCN(CC)C(=O)N1CCN(S(=O)(=O)c2ccc(C)c(C)c2)CC1 | 3.0% | i | -0.21
CC(=O)c1c(C)[nH]c(C(=O)N2CCN(C(=O)c3ccco3)CC2)c1C | -0.4% | i | 1.1
CC(=O)c1ccc(OCC(O)CN2C(C)CCCC2C)cc1 (stereo unspecified) | 8.1% | i | -1.3
